# GLA inh pH 4.5 – alpha-galactosidase A (human) inhibition, pH 4.5 | P06280 | activity change, negative = inhibition, % at 105 µM | 230,000 tested, under 10 active | purified enzyme, 4-MU-alpha-Gal fluorescence, pH 4.5; inconclusive = small, poorly fitted or top-dose-only inhibition, or a rising curve; inactive = flat fitted curve, though single readings scatter; no compound was filed as active;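 further: 0% = full activity with enzyme and -100% = basal without enzyme; dose as in the result columns while the protocol names 77 µM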
# Rango complex inh – prevents formation of the Rango-importin beta complex; Rango CFP/YFP FRET sensor + importin beta, 45 min; 340,000 compounds, 0.031% hits; Q14974; Potency, µM (highest dose often 92.2 µM), inactives show at the highest dose inhibition of complex formation; active = rising FRET ratio curve, often small or poorly fitted; inconclusive = mostly compound fluorescence or quenching in the first reads; inactive = flat curves in all reads;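 further: potency means the concentration at half of the fitted maximal effect; 0% = DMSO wells and 100% = buffer wells lacking importin beta; nearly all actives have a fitted effect of over 15% in size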
# Target sequence (Q14974 whole entry, looked up): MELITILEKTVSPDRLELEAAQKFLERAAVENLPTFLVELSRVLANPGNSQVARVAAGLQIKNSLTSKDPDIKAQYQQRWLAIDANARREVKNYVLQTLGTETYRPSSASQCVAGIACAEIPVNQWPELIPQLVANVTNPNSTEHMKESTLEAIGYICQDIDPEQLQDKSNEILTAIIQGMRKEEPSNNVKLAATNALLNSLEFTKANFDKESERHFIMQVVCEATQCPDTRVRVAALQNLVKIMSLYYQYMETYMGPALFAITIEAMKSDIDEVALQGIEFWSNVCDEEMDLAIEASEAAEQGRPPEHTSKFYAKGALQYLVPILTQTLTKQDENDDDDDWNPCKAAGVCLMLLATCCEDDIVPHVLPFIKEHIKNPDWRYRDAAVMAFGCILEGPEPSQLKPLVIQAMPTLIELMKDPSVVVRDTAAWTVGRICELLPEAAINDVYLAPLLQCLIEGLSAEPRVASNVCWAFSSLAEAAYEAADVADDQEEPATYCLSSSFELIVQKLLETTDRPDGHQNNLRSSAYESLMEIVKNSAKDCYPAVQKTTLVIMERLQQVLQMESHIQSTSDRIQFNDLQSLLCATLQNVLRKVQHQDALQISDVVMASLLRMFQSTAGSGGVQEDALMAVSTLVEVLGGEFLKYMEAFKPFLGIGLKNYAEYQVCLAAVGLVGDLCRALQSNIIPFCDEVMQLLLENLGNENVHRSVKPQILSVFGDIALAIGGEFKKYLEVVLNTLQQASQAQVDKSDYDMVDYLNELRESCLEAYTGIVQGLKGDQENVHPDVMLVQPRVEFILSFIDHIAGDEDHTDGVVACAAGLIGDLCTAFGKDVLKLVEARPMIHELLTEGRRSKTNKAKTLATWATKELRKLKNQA
#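 FRET biosensor (snurportin 1 IBB flanked by EYFP and cerulean), 50 nM, with compound 5 min, then 0.125 microM importin beta in PBS, 1 mM DTT, 0.02% Tween-20, 0.1% BSA. CFP/YFP ratio read after 45 min at room temperature; pre-read flags interference.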
# Rango dissoc inh – prevents RanGTP from dissociating the Rango-importin beta complex; O95149+P62826; Potency, µM (series often up to 46.1 µM), for the others: at the top dose activity change, negative = inhibition; 340,000 compounds, 0.071% hits; Biochemical FRET Rango-importin beta, RanGTP-induced dissociation; active means falling FRET ratio curve, often poorly fitted, with flat reads before Ran was added; inconclusive means other falling curves, or compound fluorescence or quenching; inactive means flat or rising ratio curve;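 further: potency means the concentration at half of the fitted maximal effect; % of control where 0% means no effect; nearly all actives have a fitted effect of over 45% in size; -100% = wells without RanGTP and RCC1; the record marks most hits as doubtful in a second field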
#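 Quantitative HTS using a FRET biosensor: 0.1 uM Rango, 0.25 uM importin beta, 0.6 uM Ran, 2 mM GTP, 0.2 uM RCC1 final, PBS with DTT, Tween-20 and BSA. Post-read taken 45 min after Ran addition.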
# miR-21 reporter – raises the signal of a miR-21 reporter. HeLa miR-21 FLuc reporter, luciferase, 48 h. Potency, µM (highest dose often 38.3 µM), for the others: at the top dose reporter change, positive = more light. 340,000 tested, under 10 active. AID 2288; active = well fitted rising curve with a large enough effect; inconclusive = small, poorly fitted or top-dose-only effect; inactive = no such curve, though single readings can be large or run the other way;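 further: % of control where 0% means no effect; miR-21 action dims this reporter so a rising signal means less miR-21 action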
#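 Luminescence from a firefly luciferase reporter carrying a miR-21 binding site downstream, stably expressed under a CMV promoter in HeLa cells that make miR-21 endogenously, reports miRNA modulation after 48 h compound exposure up to approximately 40uM final.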
# Numbers without * were called inactive; ? = inconclusive; . = no result given. Not all compounds are listed; rates above refer to the full screens.
SMILES,GLA inh pH 4.5,Rango complex inh,Rango dissoc inh,miR-21 reporter
C=C(c1ccc(OCCO)cc1)c1ccc(OCCO)cc1,1,-1.0%,-1%,-8%
CC(=O)Nc1ccc(S(=O)(=O)N2CCN(c3ccccn3)CC2)cc1,8,0.3%,-8%,9%
Cc1cccc(NC(=O)N(Cc2nc3ccccc3c(=O)[nH]2)C2CCCC2)c1,0,-1.2%,2%,-23%
CCCCc1cc(=O)oc2cc(OCC(=O)NC3CCN(Cc4ccccc4)CC3)ccc12,.,-1.4%,0%,0%
O=C(NC(=S)Nc1ccccc1N1CCOCC1)c1ccco1,-2,0.7%,21%,-11%
COc1ccc2nc(NC(=O)c3cc(S(=O)(=O)N4CCOCC4)ccc3C)sc2c1,1,2.0%,23%,-3%
COc1cc(C(=O)NC2CCN(CC(=O)Nc3cccc(C)c3C)CC2)cc(OC)c1OC,.,-1.6%,16%,-4%
CCOC(=O)N1CCN(C(=O)CSCC(=O)N=c2sc3ccccc3n2C)CC1,7,4.1%,-17%,-12%
CC1=C(C(=O)Nc2ccccn2)C(c2cn(C)nc2C)C2=C(CCCC2=O)N1 (stereo not given),?,?,-24%,1%
CCCC1CC(C#N)N(N(C)C)C1=C(C#N)C#N (stereo not given),1,9.5%,1%,-6%
CCCCOC(=O)C1C2C=C[C@]3(CN(C(C)c4ccc(OC)cc4)C(=O)[C@H]13)O2 (stereo not given in full),10,-3.9%,2%,-3%
COc1cc(/C=N/NC(=O)c2ccccc2O)ccc1OCC(=O)Nc1ccccc1,.,-0.1%,-2%,-32%
CC1(C)CC(=O)C(C=NCCc2ccccn2)=C(O)C1,5,0.1%,-4%,-7%
COCCCNC(=O)Cc1coc2ccc3ccccc3c12,-6,-4.2%,2%,4%
CC(C)(CNC(=O)Cc1ccc(Br)cc1)N1CCOCC1,.,3.5%,16%,-4%
Cc1ccc(S(=O)(=O)CC(O)COc2ccc(F)cc2Cl)cc1 (stereo not given),2,2.0%,4%,-6%
COC(=O)CSCc1nc2ccccc2[nH]c1=O,1,-4.7%,?,-20%
NC(=O)c1c(NC(=O)c2cccnc2)sc2c1CCCCC2,.,-4.1%,-29%,-33%
O=C(O)c1cccc(S(=O)(=O)Nc2ccc(Cc3ccncc3)cc2)c1,.,1.4%,4%,.
c1ccc(CCc2nc(-c3cccnc3)no2)cc1,-13,0.3%,-22%,-45%

# Profiles from above.
# COc1cc(/C=N/NC(=O)c2ccccc2O)ccc1OCC(=O)Nc1ccccc1 is listed with GLA inh pH 4.5: .; Rango complex inh: -0.1%; Rango dissoc inh: -2%; miR-21 reporter: -32%
# CC(=O)Nc1ccc(S(=O)(=O)N2CCN(c3ccccn3)CC2)cc1 is listed with GLA inh pH 4.5: 8; Rango complex inh: 0.3%; Rango dissoc inh: -8%; miR-21 reporter: 9%

# More entries:
SMILES,GLA inh pH 4.5,Rango complex inh,Rango dissoc inh,miR-21 reporter
CN(CC(=O)Nc1ccc(Cl)cc1)S(=O)(=O)c1ccc2c(c1)n(C)c(=O)c(=O)n2C,.,-2.2%,-13%,1%
COc1ccc(C(=O)c2sc3nc(-c4ccc(OC)cc4)ccc3c2N)cc1,0,?,?,-24%
O=C(O)CSC(C(=O)Nc1ccc(Br)cc1)c1ccc(Cl)cc1 (stereo not given),-3,3.8%,3%,-5%
Cc1cccc2sc(N(CCCN(C)C)C(=O)CN3C(=O)c4ccccc4C3=O)nc12,-2,6.6%,1%,-1%
COCc1cc(C)nc(SCC(=O)Nc2cc(C(F)(F)F)ccc2N2CCOCC2)c1C#N,.,?,?,-5%
COc1ccccc1C(=O)NNC(=O)C(=O)NC1CCCCC1,.,0.0%,3%,-1%
CC(NC(=O)CN(C)Cc1nc2ccccc2c(=O)[nH]1)c1ccccc1 (stereo not given),0,-2.5%,2%,0%
COC(=O)Cc1ccc(NC(=S)N2CCCC(CO)C2)cc1 (stereo not given),5,-6.4%,0%,28%
Fc1cccc(Cc2noc(CN3CCOCC3)n2)c1,6,0.1%,-4%,2%
C=CCNc1nc(-c2ccc(Cl)cc2)cs1,9,?,-10%,-41%
CSc1nc(C)cc(SCC(=O)N/N=C/c2ccccc2)n1,-5,0.0%,0%,-5%
N#Cc1c(C(F)(F)F)cc(-c2cccs2)nc1N1CCCCC1,-6,?,?,7%
Cc1ccc(CNC(=O)CCCCn2c(=O)[nH]c3ccsc3c2=O)cc1,1,?,-5%,-1%
Nc1nc2ccc(S(=O)(=O)N3CCCCC3)cc2s1,3,-2.4%,6%,2%
Cc1ccc(/C(N)=N/OC(=O)Oc2ccccc2)cc1,-5,0.9%,13%,-4%
O=C(C(Cc1ccccc1)n1cccc1)N1CCCCC1 (stereo not given),0,-0.6%,15%,-11%
COc1ccc(OC)c(CN2CCN(c3ccc(S(=O)(=O)N4CCCC4)cn3)CC2)c1,.,-0.2%,-9%,.
CCCCSc1nc(CCC)cc(=O)[nH]1,6,-0.3%,-2%,-4%
CCOC(=O)C(NC(=O)CC(C)C)(Nc1sc2c(c1C(N)=O)CCCC2)C(F)(F)F (stereo not given),-5,?,-5%,-9%
CC1CCN(c2ccc([N+](=O)[O-])cc2C(=O)NCC2CCCO2)CC1 (stereo not given),.,1.7%,0%,0%
COc1cccc(C2C(C(=O)OC(C)C)=C(C)N=c3s/c(=C\c4ccc(C(=O)O)cc4)c(=O)n32)c1 (stereo not given),.,0.3%,32%,-1%
Cc1nc2ncnn2c(C)c1CCC(=O)N1CCc2ccccc21,-1,-5.4%,7%,-5%
N#CCCn1cc(C(=O)Nc2ccc(C(=O)O)cc2)c(-c2cc3ccccc3o2)n1,3,1.9%,-5%,-2%
CC(C)c1ccc(O)c(NC(=O)c2cncc(Br)c2)c1,-4,2.4%,?,-24%
O=C(Nc1ccccc1)c1cccc2c(Br)cccc12,.,-16%,21%,-8%
CN(C)C(=O)CCc1ccc2c3c([nH]c2c1)[C@]1(CCC2CCCC2)[C@@H](C(=O)N2CCOCC2)C[C@H](CC(=O)NCCC2=CCCCC2)C(=O)N1CC3,.,-0.3%,-4%,.
O=C(O)[C@H](Cc1ccccc1)N1Cc2ccccc2C1=O,-1,-0.1%,3%,0%
Cc1cccc(-n2nc(C)c3c2NC2=C(C(=O)CCC2)C3c2ccccn2)c1 (stereo not given),4,-5.3%,-7%,-3%
CCOC(=O)c1c(C)c(C(=O)NCc2ccc(OC)cc2)c(C)n1C,-4,0.2%,-20%,-8%
COc1ccccc1S(=O)(=O)N1CCNC(=O)C1,.,-0.4%,-3%,.
O=C(CCSc1nnc(-c2ccncc2)o1)Nc1ccccc1Cl,2,0.1%,2%,-6%
CN1C(C(=O)NCc2cccc(C(F)(F)F)c2)CC2Cn3c(nc4cc(Cl)c(Cl)cc43)C21 (stereo not given),14,1.5%,8%,4%
Cc1cc(S(=O)(=O)Nc2ccccc2C(=O)O)ccc1Cl,4,2.2%,3%,-23%
CCN(CC)CCNC(=O)c1ccccc1C(=O)c1ncc[nH]1,-19,-3.4%,4%,-1%
Cc1ccc(C(C)C)c(OCc2ccc(C(=O)N/N=C/c3cccc(O)c3O)cc2)c1,-5,1.8%,3%,?
COc1cccc(NC(=S)NC2CC3CCCC(C2)N3C2CCCC2)c1 (stereo not given),-18,-0.7%,-10%,-2%
C[C@@H]1CCC(=O)N(C[C@@H](C)CSc2ccc(Br)cc2)CC1,.,-2.8%,4%,.
O=C(Cc1ccccc1)NNC(=S)Nc1ccccc1,12,3.4%,6%,-5%
Cc1ccc(NC(=S)NNS(=O)(=O)c2ccc3ccccc3c2)cc1Cl,-10,2.2%,12%,0%
COc1cccc(-c2nc3c(c(=O)[nH]c(=O)n3Cc3ccccc3)n2CCO)c1OC(F)F,.,5.0%,-24%,-17%
O=C(N/N=C/C(Cl)=C/c1ccccc1)c1ccncc1,-5,-1.4%,2%,3%
NC(=O)C1CCN(C(c2ccccc2F)c2nnnn2Cc2ccco2)CC1 (stereo not given),3,-0.6%,27%,-1%
Cc1ccc(NS(=O)(=O)c2ccc3c(c2)oc(=O)n3C)cc1F,7,5.0%,-16%,1%
CC(C)(C)c1nnc(NS(C)(=O)=O)s1,.,2.8%,-6%,.
CCC(C)N(C(=O)CSc1nc(C)c(C)c(C)c1C#N)C1CCS(=O)(=O)C1 (stereo not given),.,-0.1%,15%,.
O=C(CC1C(=O)NCCN1Cc1cccc(F)c1)NCCCN1CCCC1=O (stereo not given),.,?,-14%,1%
CS(=O)(=O)N(CC(=O)N1CCCCCC1)c1ccc2c(c1)OCCO2,-10,-0.3%,2%,-4%
C/C=C/C=C/C(=O)OC(C)C(=O)Nc1cc([N+](=O)[O-])ccc1OC (stereo not given),4,1.0%,1%,0%
COc1cc(/C=C/c2ccc3cccc([N+](=O)[O-])c3n2)ccc1OCC(=O)O,-2,4.1%,23%,-7%
CC(=O)OCC(=O)C1(O)CCC2C3CC(C)C4=CC(=O)C=CC4(C)C3=CCC21C (stereo not given),.,-1.7%,-5%,.
CC1CCC(C(C)C)C(OC(=O)COC(=O)c2cc(O)ccc2N)C1 (stereo not given),5,?,?,6%
Cc1ccc(CNC(=O)C2=CCN(S(=O)(=O)c3ccc(C)cc3)CC2)cc1,2,.,.,-2%
Nc1ccc(-c2nnnn2-c2ccc(N)cc2)cc1,.,-1.1%,-3%,0%
Cc1ccc(S(=O)(=O)N2CCN(C(=O)COC(=O)c3ccccc3Cl)CC2)c(C)c1,.,-0.9%,-2%,.
COc1cc(C(=O)N2c3ccccc3CCC2C)cc(OC)c1OC (stereo not given),.,-1.7%,5%,15%
Cc1oc(-c2cccs2)[n+]([O-])c1C,-4,1.8%,-11%,-4%
COc1ccc(C(=O)NCCC(C)C)cc1S(=O)(=O)N1CCOCC1,-5,3.6%,0%,-5%
O=C(Nc1cc(F)ccc1F)C1CCCN(c2ncnc3c2nc2n3CCCCC2)C1 (stereo not given),.,-1.8%,5%,4%
O=C1COCC(=O)N1CCc1c[nH]c2ccccc12,-4,0.0%,0%,0%
COC(=O)C1(CO)NC(c2ccc(C)cc2)C2C(=O)N(c3ccccc3)C(=O)C21 (stereo not given),.,3.8%,5%,-2%

# Reprinted at random: five entries already listed.
SMILES,GLA inh pH 4.5,Rango complex inh,Rango dissoc inh,miR-21 reporter
CS(=O)(=O)N(CC(=O)N1CCCCCC1)c1ccc2c(c1)OCCO2,-10,-0.3%,2%,-4%
CC(C)c1ccc(O)c(NC(=O)c2cncc(Br)c2)c1,-4,2.4%,?,-24%
CN(CC(=O)Nc1ccc(Cl)cc1)S(=O)(=O)c1ccc2c(c1)n(C)c(=O)c(=O)n2C,.,-2.2%,-13%,1%
COc1ccc2nc(NC(=O)c3cc(S(=O)(=O)N4CCOCC4)ccc3C)sc2c1,1,2.0%,23%,-3%
Cc1ccc(CNC(=O)C2=CCN(S(=O)(=O)c3ccc(C)cc3)CC2)cc1,2,.,.,-2%

# More compounds
SMILES,GLA inh pH 4.5,Rango complex inh,Rango dissoc inh,miR-21 reporter
COc1ccc(/C(=N/O)C(C)(C)NO)cc1,5,0.1%,3%,0%
COc1ccc(CN(C)Cc2ccccc2)c(OC)c1OC,-4,0.1%,-9%,-6%
CCOC(=O)C1=C(C)C/C(=N\NC(=O)c2ccccc2O)CC1,0,2.3%,-9%,-15%
CCN1CCN(c2ccc(S(=O)(=O)N3CCOCC3)cc2NC(=O)c2cc(Cl)nc3ccccc23)CC1,.,1.6%,9%,.
COC(=O)Cn1nc(-c2ccccc2)c2ccccc21,.,2.6%,-1%,15%
CCOC(=O)c1sc(NC(=O)c2cc3ccccc3o2)nc1C,-12,-0.9%,6%,-47%
CCCC(C)c1nnc(NC(=O)CN2C(=O)c3ccccc3C2=O)s1 (stereo not given),5,-0.5%,-10%,-2%
Nc1cccnc1Sc1cccc(Cl)c1,6,-6.2%,11%,-8%
Cc1cc2nc3n(c2cc1C)CC1CC(C(=O)NCCC(C)C)N(C)C31 (stereo not given),.,-4.8%,-14%,.
NC(=O)[C@@H]1[C@@H]2C(=O)N(c3ccc(F)cc3)C(=O)[C@@H]2[C@H]2C=Cc3ccccc3N21,3,?,?,7%
O=C(c1cccc(Cl)c1)C1CCCN(Cc2ccc(N3CCNC3=O)cc2)C1 (stereo not given),-20,-2.1%,-17%,17%

# Source: PubChem
